# Screens: PubChem BioAssay, National Center for Advancing Translational Sciences (NCATS)
# Six1-Eya2 blk: inhibitors of human Six1/Eya2 interaction | activity change, % (no concentration beside the values) | AlphaScreen GST-Six1/His-Eya2 binding, biochemical; active compounds read low; control for the full effect not named in the record | 0.56% of 360,000 active | AID 651725; in the data active = activity change below about -65%; inconclusive = about -30% to -65%; inactive = above about -30%; further: on the % scale 0 is the no-effect control and ±100 the full control effect
# Target sequence (O00167 whole entry, looked up): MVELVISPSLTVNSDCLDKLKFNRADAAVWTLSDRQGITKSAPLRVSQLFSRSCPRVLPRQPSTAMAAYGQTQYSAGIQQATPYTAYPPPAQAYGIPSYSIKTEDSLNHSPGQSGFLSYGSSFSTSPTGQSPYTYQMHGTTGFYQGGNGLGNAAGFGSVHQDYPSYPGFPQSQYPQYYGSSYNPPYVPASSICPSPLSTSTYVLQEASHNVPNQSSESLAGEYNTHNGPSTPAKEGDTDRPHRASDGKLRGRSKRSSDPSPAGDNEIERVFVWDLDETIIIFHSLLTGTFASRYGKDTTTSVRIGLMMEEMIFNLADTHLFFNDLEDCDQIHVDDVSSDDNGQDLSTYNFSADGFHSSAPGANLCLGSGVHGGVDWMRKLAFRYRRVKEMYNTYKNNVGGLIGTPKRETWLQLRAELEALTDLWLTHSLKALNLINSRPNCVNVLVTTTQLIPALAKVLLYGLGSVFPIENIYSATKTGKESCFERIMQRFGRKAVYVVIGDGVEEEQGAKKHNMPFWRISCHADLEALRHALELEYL
# Target sequence (Q15475 whole entry, looked up): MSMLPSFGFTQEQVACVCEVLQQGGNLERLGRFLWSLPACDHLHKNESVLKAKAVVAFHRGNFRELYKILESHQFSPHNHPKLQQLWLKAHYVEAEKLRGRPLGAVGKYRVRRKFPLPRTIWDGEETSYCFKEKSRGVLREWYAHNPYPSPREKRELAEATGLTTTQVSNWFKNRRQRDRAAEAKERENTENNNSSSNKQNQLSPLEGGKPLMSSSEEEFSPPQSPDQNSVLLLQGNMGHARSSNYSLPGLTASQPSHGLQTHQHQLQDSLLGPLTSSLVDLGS
#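 Six1/Eya2 binding was read as AlphaScreen signal after compounds were pinned into GST-Six1 plus His-tagged Eya2 (5X stock 250/500 nM) in pH 8.0 Tris/NaCl/TCEP buffer, beads added, then incubated 1 h, 37 C, dark.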
# TRPML1 agonist: agonists of human TRPML1 channel | Q9GZU1 | TRPML1-expressing cells, Ca2+ dye fluorescence, FDSS; host cell line not named in the record; reference of the full effect not given here | activation, % (no concentration beside the values) | 0.12% of 410,000 active | AID 624414; in the data active = activation above about 50%; inconclusive = about 30% to 50%; inactive = below about 30%; further: 0% is about no effect; the text of the record puts the active cut at 80%
#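 Tet-induced TRPML1-DL cells, 1,500 per well, cultured overnight, were loaded with a no-wash Ca2+ dye for 45–90 min. Calcium fluorescence was recorded on the FDSS for 110 s after compound addition, before the EC80 agonist (4 uM 54-4) was added.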
# CtBP-E1A blk: inhibitors of CtBP/E1A interaction; AID 651724; activity change, % (concentration not given with the values); AlphaScreen GST-E1A/His-CtBP binding, 1536-well; active compounds read low; control for the full effect not named in the record; 0.49% of 340,000 active; in the data active means activity change below about -65%; inconclusive means about -30% to -65%; inactive means above about -30%; further: on the % scale 0 is the no-effect control and ±100 the full control effect
#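 GST-E1A and His-tagged CtBP (125 nM each as 5X stock) were preincubated with pin-transferred compound for 2 h at 37 °C in the dark, then glutathione donor and nickel acceptor beads were added for 1 h before AlphaScreen reading.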
# D2 potentiator: potentiates the human D2 dopamine receptor allosterically. 0.23% of 360,000 active. P14416. DiscoveRx D2 beta-arrestin cells, luminescence, 90 min; 100% = 57 uM dopamine signal. potentiation, % (concentration not given with the values); active = potentiation of 50% or more; inconclusive = 30% to 50%; inactive = 30% or less;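 further: compound concentration not given in the record; tested on top of an EC20 dose of dopamine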
#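 D2 cells co-treated with compound plus 50 nM dopamine (EC20) for 90 min at 37 deg C to detect potentiation. Beta-arrestin recruitment was read as enzyme-fragment luminescence after 1 h at ambient temperature. Full response was set by 57 uM dopamine.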
# D2 agonist: activates the human D2 dopamine receptor | P14416 | DiscoveRx PathHunter D2 beta-arrestin, luminescence, 90 min; 100% = 57 uM dopamine signal | activation, % (test concentration not listed) | 0.084% of 360,000 active | AID 624465; in the data active = activation above about 40%; inconclusive = about 15% to 40%; inactive = below about 15%; further: compound concentration not given in the record; the text of the record calls up to 30% inactive
#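 DiscoveRx PathHunter D2 beta-arrestin cells (2,100/well) attached overnight, then compound-stimulated 90 min at 37 C in HBSS/10 mM HEPES/0.1% Tween-20 buffer; beta-galactosidase complementation read by luminescence after 1 h at ambient temperature. Dopamine 57 uM final (EC100) as control.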
# PINK1 modulator: PINK1 expression modulation. PINK1 immunofluorescence, high-content cytometry, 24 h. 0.2% of 410,000 active. Potency, µM (highest dose often 76.6 µM), without a hit: at the highest dose activation (PINK1 increase), usual class: activators; active = well fitted activation curve with a large enough effect; inconclusive = small, poorly fitted or top-dose-only effect; inactive = flat fitted curve, though single readings scatter; cell line not stated here;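 further: potency means the concentration at half of the fitted maximal effect; % of control where 0% means no effect; nearly all actives have a fitted effect of over 65% in size; a mitochondrial uncoupler was the plate control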
#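 Cells are seeded, rested 12 hours, then given compound at five concentrations or DMSO for 24 hours. After fixation, blocking and antibody staining, PINK1 amount and mitochondrial localization are scored; CCCP serves as control.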
# * hit, by the source's call; ? = inconclusive; . = not tested or not shown; & = joins results of further samples; [ ] = another dose, or the depositor's remark.
# Under each structure – PINK1 modulator	D2 agonist	CtBP-E1A blk	D2 potentiator	Six1-Eya2 blk	TRPML1 agonist
> CCC(C(=O)NCCCN1CC(C)CC(C)C1)n1nc(C)c2sc3ccccc3c2c1=O (stereo not given)
→ -1.1%	-5.6	.	-21	0	-0.2
> O=C(Nc1ncc([N+](=O)[O-])s1)c1cccs1
→ ?	-8.7&-5.8	4	-24&-30	1&-8	1.1&-0.1
> CC(C)N(Cc1ccccc1)C(=O)COC(=O)c1cc(S(=O)(=O)N(C)C)ccc1N1CCCC1
→ -1.6%	2.2	-7	0	-10	1.0
> O=C(COc1ccc(S(=O)(=O)N2CCCC2)cc1Cl)NCc1cccnc1
→ 3.9%	0.8	3	-3	7	-0.3
> O=C(NCc1ccccc1Cl)C1CCN(S(=O)(=O)N2CCCC2)CC1
→ -0.5%	-5.8	.	-2	-2	-0.2
> CCN(CC)CCNC(=S)Nc1ccc2nc3n(c(=O)c2c1)CCCCC3
→ -0.8%	-2.7	-13	-4	0	0.6
> CCOc1ccc(N(CC(=O)Nc2ccccc2OC)S(=O)(=O)c2ccccc2)cc1
→ 7.6%	-3.4	.	23	0	0.7
> O=C(COC(=O)CC1CC2CCC1C2)NC(=O)NCc1ccco1 (stereo not given)
→ -0.8%	-1.8	-4	-7	-3	0.4
> CCc1nnc(NC(=O)c2ccc(OC)c(S(=O)(=O)N3CCCC3)c2)s1
→ -0.3%	0.5	-14	-5	-3	1.9
> CC1(C)CC(c2csc(N)n2)CCO1 (stereo not given)
→ 0.6%	-0.2	-5	-1	21	0.5
> C=CCc1cccc2cc(C(=O)NC3CCCCC3)c(=O)oc12
→ 5.0%	2.8	-21	6	9	?
> CC(=O)Nc1ccc(S(=O)(=O)N(C)CC(=O)OC(C)C(=O)NC2CCCCC2)cc1 (stereo not given)
→ -1.0%	-4.1	3	-16	3	-0.5
> COc1ccccc1CNC(=O)CN(c1cccc([N+](=O)[O-])c1)S(C)(=O)=O
→ -1.0%	0.3	.	16	-1	2.1
> CC1CCN(C2(O)C(=O)Nc3ccc([N+](=O)[O-])cc32)CC1 (stereo not given)
→ 0.2%	-2.5	-8	-7	2	0.5
> COC(C(=O)Nc1ccccc1F)c1ccccc1 (stereo not given)
→ 2.8%	-3.6	-9	-7	0	0.4
> CC(=O)Nc1ccc(C(=O)N2CCCC(c3cc(C(=O)NCc4ccc(F)cc4)no3)C2)cc1 (stereo not given)
→ 1.5%	-2.7	4	-1	3	0.0
> C/C(N)=C(/C#N)C(=O)COC(=O)C(NS(=O)(=O)c1ccc(Cl)cc1)C(C)O (stereo not given)
→ 2.2%&-4.2%	-0.8&0.3	-8&9	-7&-8	-10&4	0.6&-1.1
> CCOC(=O)CNC(=O)CN1C(=O)CC(c2ccccc2)S(=O)(=O)c2ccccc21 (stereo not given)
→ 0.6%	-4.9	-9	-32	25	-0.5
> NS(=O)(=O)c1ccc(N=Cc2c(O)n(-c3nccs3)c(=O)c3ccccc23)cc1
→ -1.8%	1.8	-22	3	-23	-0.5
> CC(=O)C1=C(C)Nc2ncnn2C1c1ccc(Cl)cc1Cl (stereo not given)
→ 1.3%	-1.9	1	-10	0	-0.7
> CCCCn1c(N)c(N(CC(C)C)C(=O)CSc2nnc(C)n2-c2ccc(OC)cc2)c(=O)[nH]c1=O
→ -4.5%	2.0	2	3	4	0.0
> Cc1cc(OCc2cccc(Cl)c2)c(C)cc1CN1CCOCC1
→ 20%	-2.9	19	-21	1	-0.1
> COc1cc(OC)cc(N(C(=O)CNC(=O)c2ccco2)C(C(=O)NCC2CCCO2)c2ccccc2)c1 (stereo not given)
→ -0.2%	6.7	1	?	7	1.1
> Cc1ccc(C(=O)NCC(=O)OCC(=O)Nc2ccc3[nH]c(=O)[nH]c3c2)cc1
→ -2.2%	-3.2	3	-1	-10	-0.2
> Cc1cccc(C(=O)NC(=S)Nc2ccc(Cc3ccncc3)cc2)c1
→ 4.7%	0.5	-24	7	-15	2.6
> CCCS(=O)(=O)N1CCCC(C(=O)NCCCN2CCN(c3ccc(F)cc3)CC2)C1 (stereo not given)
→ 0.3%	1.8	-1	-27	12	-0.4
> N/C(=N\OC(=O)Cc1ccccc1[N+](=O)[O-])c1cccc(Br)c1
→ 0.6%	4.7	.	0	-8	0.0
> Nc1nonc1N1CCCCC1
→ -2.4%	-2.0	2	-8	4	0.2
> CC(C)C(=O)N1CCC(Cc2ccccc2)CC1
→ 0.3%	-3.5	-8	-3	10	0.4
> Cc1ccccc1-n1c(SCC(=O)N2CCN(c3ccccn3)CC2)nnc1N1CCOCC1
→ -0.2%	0.7	0	-12	9	0.3

# 6 compounds drawn at random from the list so far, as already listed:
# Under each structure – PINK1 modulator	D2 agonist	CtBP-E1A blk	D2 potentiator	Six1-Eya2 blk	TRPML1 agonist
> Cc1ccc(C(=O)NCC(=O)OCC(=O)Nc2ccc3[nH]c(=O)[nH]c3c2)cc1
→ -2.2%	-3.2	3	-1	-10	-0.2
> CCC(C(=O)NCCCN1CC(C)CC(C)C1)n1nc(C)c2sc3ccccc3c2c1=O (stereo not given)
→ -1.1%	-5.6	.	-21	0	-0.2
> Nc1nonc1N1CCCCC1
→ -2.4%	-2.0	2	-8	4	0.2
> CCN(CC)CCNC(=S)Nc1ccc2nc3n(c(=O)c2c1)CCCCC3
→ -0.8%	-2.7	-13	-4	0	0.6
> CC(C)C(=O)N1CCC(Cc2ccccc2)CC1
→ 0.3%	-3.5	-8	-3	10	0.4
> CC1CCN(C2(O)C(=O)Nc3ccc([N+](=O)[O-])cc32)CC1 (stereo not given)
→ 0.2%	-2.5	-8	-7	2	0.5

# Next results:
# Under each structure – PINK1 modulator	D2 agonist	CtBP-E1A blk	D2 potentiator	Six1-Eya2 blk	TRPML1 agonist
> CCOC(=O)C1=C(c2ccccc2)NC(=O)NC1c1ccc(OCC#N)c(OC)c1 (stereo not given)
→ 0.7%	-2.0	2	-21	22	1.9
> C[C@H](CO)N1C[C@H](C)[C@@H](CN(C)Cc2ccc(C(=O)O)cc2)Oc2c(cccc2N(C)C)C1=O
→ 0.3%	-2.0	6	2	7	0.5
> CC(=O)Nc1ccc2nc(NC(=O)COc3ccccc3)sc2c1
→ -0.6%	0.2	4	-9	3	-0.4
> CCc1ccc2nc(Nc3nc(COC)cc(=O)[nH]3)nc(C)c2c1
→ 0.2%[38.3 µM]	-1.3	-6	-3	-3	0.4
> CC(C)(C)NC(=O)c1ccccc1NC(=O)c1ccc2c(c1)OCO2
→ 1.3%	-1.1	4	2	7	-0.9
> O=C1/C(=C\c2ccc([N+](=O)[O-])cc2)CCc2ccccc21
→ 1.5%	-0.8	-24	-2	-1	0.8
> COc1ccc2c(c1OC)C(=O)OC2CC(=O)c1ccc2c(c1)OCO2 (stereo not given)
→ -7.7%[38.3 µM]	-2.3	4	-13	6	0.5&-0.8
> Cc1cccc(CSc2ccc3nnc(-c4cccnc4)n3n2)c1
→ 0.0%	-0.4	-1	-6	-7	-0.4
> C=CCn1c(SCC(=O)N2CCc3ccccc3C2)nnc1-c1ccncc1
→ -1.5%	-4.8	-13	-6	4	-0.6
> CC(NS(=O)(=O)c1ccc2c(c1)CC(C)N2C(=O)C1CC1)c1ccccc1 (stereo not given)
→ -1.5%	1.5	-1	-4	-1	0.3
> O=C(c1ccccc1)c1sc(N2CCOCC2)nc1-c1ccccc1
→ 1.2%	-2.4	11	-4	9	-0.6
> CCOc1ccc(NC(=O)CN(C)C(=O)/C=C/c2ccc(S(=O)(=O)N3CCCCCC3)cc2)cc1OCC
→ 9.6%	-1.5	0	10	11	2.1
> Cc1ccc(C(=O)O/N=C(\N)c2ccccc2)c(Cl)c1
→ -0.1%	15	2	11	4	0.5
> Cc1cc2nc(/N=C(\N)NC(=O)N3c4ccccc4Sc4ccccc43)nc(C)c2cc1C
→ 6.3%&6.2%	?	-16&-10	?	-20&-20	-0.8&0.1
> O=C(OCc1ccccc1)N1CCC2CC1c1cc(N3CCN(S(=O)(=O)c4cc(Cl)cc(Cl)c4)CC3)ccc12 (stereo not given)
→ 3.0%	-12	-5	-1	0	-0.5
> CCOC(=O)c1sc(NC(=O)c2ccc(S(=O)(=O)N(C)C)cc2)cc1C
→ .	-0.1	?	-39	-27	-0.2
> O=C(Nc1ccc(S(=O)(=O)N2CCOCC2)cc1)c1ccc([N+](=O)[O-])s1
→ -0.8%	3.9	-10	4	9	0.2
> Cc1oc2ccccc2c1CNC(=O)N(C)C
→ 0.6%	0.4	0	-2	-8	-0.5
> Cc1ccc(C2=NOC(=O)/C2=C\C=C\c2ccccc2)cc1
→ -1.1%	-0.7	0	-12	0	-0.2
> O=S(=O)(Nc1ccccn1)c1ccc(Br)cc1
→ 3.5%	5.0	0	0	25	0.7
> COc1ccc(NC(=O)c2csc3c2CCCCC3)c(OC)c1
→ 10%	-3.8	-13	-1	13	2.4
> CCC(=O)Nc1ccc(C(=O)NNC(=O)c2cccc(C)c2)cc1
→ 3.4%	0.7	.	-9	3	0.7
> FC(F)(F)c1nc(=S)c2ccccc2[nH]1
→ 3.9%	-8.2	3	-3	-20	-0.3
> O=C(Nc1nccs1)C1Cc2ccccc2CN1S(=O)(=O)c1ccc(F)cc1 (stereo not given)
→ -3.9%	0.3	-11	1	-1	4.3
> CCCc1nc2ccc(NC(=O)c3ccco3)cc2c(=O)n1Cc1ccccc1Cl
→ 4.5%	1.8	-1	-3	0	5.3
> CCCN(CC(=O)Nc1ccc(C(N)=O)cc1)CC(=O)Nc1ccccc1C
→ 8.7%	-4.4	6	-1	-4	-0.6
> COc1ccc(-n2nnc3c(=O)n(CC(=O)N4CCCC4)cnc32)cc1
→ -0.1%[38.3 µM]	-1.2	12	-10	8	0.7
> O=C(CSc1nnc2ccc(-c3ccccn3)nn12)Nc1cccc(F)c1
→ 4.3%	0.2	9	-4	-2	-0.4
> CCOc1cc(Cl)c(NC(C)=O)cc1OCC
→ -1.8%	-3.6	2	-13	8	1.3
> CCOC(=O)c1[nH]c2ccc(OC)cc2c1NS(=O)(=O)c1ccc(OC)cc1OC
→ 0.8%	-0.9	-2	4	-6	-0.6
> C/C=C/c1ccc(OCCCCN2CCC(C)CC2)c(OC)c1
→ 0.2%	-1.2	2	-18	6	0.7
> COC(=O)[C@@]1(Cc2ccc(OC)cc2)[C@H]2c3cc(C(=O)N4CCCC4)n(Cc4ccccc4)c3C[C@H]2CN1C(=O)c1ccccc1
→ 0.8%	.	-6	.	-22	-0.1
> COc1ccc(/C=C/C(=O)N(CCC(N)=O)c2ccccc2)cc1S(=O)(=O)N1CCOCC1
→ 1.8%	-1.0	8	-2	-9	-0.5
> Nc1nonc1-n1nnc(C(=O)N/N=C/c2ccccc2)c1CN1CCc2ccccc21
→ -2.1%	-3.5	-3	-5	-13	0.6
> O=C(COC(=O)COc1ccc(Cl)cc1Br)NC1CC1
→ 1.2%	-2.2	6	-6	0	-1.2
